ClpP mod: qHTS Assay for Activators of ClpP | 340,000 tested, 1.9% active | ATP-dependent Clp protease proteolytic subunit (Bacillus subtilis (strain 168)), P80244 | AID 651965, 2013 | Potency, µM (series often up to 57.5 µM), without a hit: top-dose activity change, negative = active | purified B. subtilis ClpP, FRET peptide cleavage, 20 min; active = well fitted falling curve with a large enough effect; inconclusive = small, poorly fitted or top-dose-only effect; inactive = no such curve, though single readings can be large or run the other way; note: the source files actives as falling curves though it sought activators and does not explain the sign; nearly all actives have a fitted effect of over 65% in size; many hits overshoot -100%
Target sequence (P80244 whole entry, looked up): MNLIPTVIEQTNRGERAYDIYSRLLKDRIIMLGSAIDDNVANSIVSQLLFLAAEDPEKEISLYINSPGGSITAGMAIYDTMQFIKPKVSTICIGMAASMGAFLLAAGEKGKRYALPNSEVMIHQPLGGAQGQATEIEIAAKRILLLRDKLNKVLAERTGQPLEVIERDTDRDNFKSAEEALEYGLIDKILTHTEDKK
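Buffer: 100 mM Tris/HCl pH8, 100 mM KCl, 0.05% low protease BSA, 2.5% glycerol, 0.01% Tween-20. ClpP 10 microg/mL final; 20 min RT; delta FRET normalized to ADEP and DMSO controls.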
* = called active by the depositor; u = inconclusive. Potency is the fitted concentration of half-maximal effect. This is a subset; the hit share may differ from the screen's.

SMILES	ClpP mod
COc1ccc(-c2nc(CSCC(=O)N3CCN(c4cc(Cl)ccc4C)CC3)c(C)o2)cc1	u
Cc1ccc(-n2ncc3c(N4CCN(Cc5ccccc5)CC4)ncnc32)cc1Cl	-1.3%
CCOCCCn1c(SCC(=O)Nc2ccccc2OC)nc2c(oc3ccccc32)c1=O	-0.1%
Cc1ccc(NC(=O)C2CCN(S(=O)(=O)c3c(C)noc3/C=C/c3ccco3)CC2)cc1C	-8.6%
COc1cccc(C2=Cc3ccc(F)cc3C(CC(C)=O)N2c2ccc(C#CC3(O)CCCCC3)cc2)c1 (centres undefined)	u
COc1cccc(-n2ccn(CC(=O)Nc3ccccc3F)c(=O)c2=O)c1	2.4%
O=C(c1ccc2c(c1)N(Cc1ccccc1F)C(=O)c1ccccc1S2(=O)=O)N1CCN(c2ccccc2F)CC1	1.2%
COC(=O)CNC(=O)Nc1cc(C(=O)NCc2ccc(C)cc2)ccc1N1CCCC1	-16%
Cc1cc(C)cc(NC(=O)c2cc(C)nc3c2c(C)nn3-c2ccccc2)c1	u
O=C(Cc1ccccc1)N(Cc1cccnc1)c1nc2c(Cl)cccc2s1	-0.7%
COc1ccc(NC(=O)c2nc(SCc3ccc(F)cc3)ncc2Cl)cc1	-0.9%
COC(=O)c1ccc(NC(=O)C(=O)NCCc2sc(-c3cccc(F)c3)nc2C)cc1	-4.3%
Cc1cccc(C)c1OCc1cc(=O)n2ccsc2n1	-12%
Cn1nc(-c2ccc(C(=O)Nc3ccc(OC(F)(F)F)cc3)cc2)c2ccccc2c1=O	-1.2%
O=C(CSc1nccn1-c1ccc(Cl)cc1)Nc1ccc(Cl)c(Cl)c1	1.0%
Cn1c(=O)n(C)c2cc(CNCc3ccc(F)cc3)ccc21	-1.3%
O=C1c2[nH]nc(-c3ccccc3O)c2C(c2cccc(OCc3ccccc3)c2)N1CCO (centres undefined)	1.4%
COC(=O)c1cc2sc(Cl)cc2n1Cc1cc(C)ccc1C	1.0%
Cc1ccc2[nH]c(C(=O)Nc3ccccc3)cc2c1	-1.9%
CN(C)c1ccc(/C=C/c2ccnc3cc(Cl)ccc23)cc1	0.8%
CC1Cc2cc(S(=O)(=O)NCc3ccc(Cl)cc3)ccc2N1C(=O)C1CCC1 (centres undefined)	-3.2%
CCOCCc1nn2c(=O)cc(COC(=O)c3ccc4c(c3)OCO4)nc2s1	1.3%
Cc1c(C(=O)N(C)C)sc2c1c(=O)n(-c1ccc(Cl)c(Cl)c1)c(=O)n2CC(=O)N1CCCCC1C (centres undefined)	-2.0%
COc1cc(OC)c(OC)cc1/C=C1\C=Cc2ccccc21	-0.7%
Cc1ccc(-n2nc(C)c3c(C)c(CCC(=O)NCc4ccc(Cl)cc4)c(C)nc32)cc1	4.5%

An excerpt of these results, in markdown:
| Compound | ClpP mod |
| --- | --- |
| COC(=O)c1cc2sc(Cl)cc2n1Cc1cc(C)ccc1C | 1.0% |
| Cc1ccc2[nH]c(C(=O)Nc3ccccc3)cc2c1 | -1.9% |

Continuation:
SMILES	ClpP mod
Cc1cc2c(cc1S(=O)(=O)Nc1cccc(Cl)c1C)n(C)c(=O)c(=O)n2C	-4.9%
Fc1cc(Br)ccc1Nc1c2c(nc3nc(-c4cccs4)nn13)CCCC2	-6.0%
COCCNC(=O)c1ccc2c(c1)N(Cc1c(F)cccc1Cl)C(=O)c1ccccc1S2	0.9%
CCOC(=O)CSc1nc2ccc(NC(=O)c3ccccc3)cc2s1	-2.7%
COc1ccc(-c2cc(C(F)(F)F)n3nc(C(=O)O)c(Cl)c3n2)cc1OC	1.2%
CN(C)c1ccc(CNC(=O)c2cnc3sc(N4CCCCCC4)nn3c2=O)cc1	-18%
CCOc1ccc(CCNC(=O)c2cccc(Nc3nc4ccccc4nc3-n3nc(C)cc3C)c2)cc1OCC	-9.1%
O=C(NCc1ccc2c(c1)OCO2)c1ccc2c(c1)N(Cc1ccccc1)C(=O)c1ccccc1S2=O (centres undefined)	-1.1%
O=C(NCCn1cc(SCc2ccc(C(F)(F)F)cc2)c2ccccc21)c1ccccc1F	-3.7%
O=c1[nH]c2ccc(NCc3ccccc3F)cc2[nH]1	-2.8%
COc1cc(Cl)c(C)cc1NC(=O)c1ccc2c(Cl)c3c(nc2c1)CCC3	-14%
O=C(CSc1nc(=O)n(Cc2ccncc2)c2c1CCC2)Nc1cccc(F)c1	-0.6%
COc1ccc(Cn2nnc(C(=O)Nc3cc(OC)ccc3OC)c2N)cc1	12%
Cc1ccc(NC(=O)c2c(C)oc3ccc(O)c(CN4CCCCCC4)c23)c(C)c1	0.3%
CCn1cc(S(=O)(=O)c2cccc(Cl)c2)c(=O)c2cc(F)c(N3CCC(C)CC3)cc21	-16%
Cc1ccc(Cn2cc(S(=O)(=O)c3ccc(C)cc3)c(=O)c3cc(F)c(N4CCCC4)cc32)cc1	u
CCCN1CCN(c2cc3c(cc2F)c(=O)c(S(=O)(=O)c2ccc(Cl)cc2)cn3C)CC1	16µM*
CCc1ccc(NC(=O)CC2C(=O)N(c3ccc(Cl)cc3)C(=O)N2Cc2cccs2)cc1 (centres undefined)	1.0%
Cc1c(C(=O)OC2CCCCC2)[nH]c2c1C(=O)CC(c1ccc(C(C)(C)C)cc1)C2 (centres undefined)	0.8%
CCOC(=O)Cn1c(=O)oc2cc(S(=O)(=O)N3CCN(c4ccccc4F)CC3)ccc21	0.1%
CCCCOc1cccc(C(=O)N(Cc2ccc(Cl)cc2)C2CCS(=O)(=O)C2)c1 (centres undefined)	-5.8%
CCOc1ccc(NC(=O)CN2C(=O)C(c3ccccc3)=NC23CCCCCC3)cc1	0.8%
Cc1cccc(NC(=O)CSc2nc3ccc(NC(=O)COc4ccccc4F)cc3s2)c1	-4.6%
COC(=O)c1c(SC)nc2ccccc2c1OCc1ccc(C)cc1	-4.8%
Cc1ccc(NC(=O)CN2Cc3ccccc3C2=O)c(C)c1	-1.0%

Grouped by structure, those above with two or more sulfur atoms (two)
SMILES	ClpP mod
CCOC(=O)CSc1nc2ccc(NC(=O)c3ccccc3)cc2s1	-2.7%
Cc1cccc(NC(=O)CSc2nc3ccc(NC(=O)COc4ccccc4F)cc3s2)c1	-4.6%

(next part)
SMILES	ClpP mod
Cc1cc(C)n2c(NCc3ccccc3)c(CC(C)C)nc2n1	-1.2%
CSc1ccc(/C=C/c2nc3ccccc3n2S(=O)(=O)c2ccc(Br)cc2)cc1	3.8%
COc1ccccc1N1CCN(c2ccc(=O)n(CC(=O)NCc3ccc(OC(C)C)cc3)n2)CC1	-0.2%
Cc1cccn2c(=O)cc(CSc3nnc(NC(=O)COc4ccc(F)cc4)s3)nc12	-4.0%
CCN1CCN(c2ncc3c(n2)CCN(Cc2ccc(C)s2)C3)CC1	-3.3%
CC(=O)N/C(=C/c1ccccc1)c1sc2ccccc2[n+]1CCCCI	1.2%
CCCOc1cccc(C(=O)Nc2cccc(NC(=O)c3ccc(C(C)(C)C)cc3)c2)c1	u
COc1ccc(-n2nc(C(=O)N3CCN(c4ccccc4OC)CC3)c3c4ccccc4n(C)c3c2=O)cc1Cl	-2.2%
COc1ccc(-c2nc3cc(C(C)C)ccc3o2)cc1NC(=O)c1ccccc1[N+](=O)[O-]	-2.6%
CCOc1ccc(CCNC(=O)c2oc(=O)c3ccccc3c2-c2ccc(C)cc2)cc1OCC	-6.2%
CCN(CC)C(=O)C1CCCN(c2ncnc3onc(C)c23)C1 (centres undefined)	0.3%
O=C(CSc1nccn1Cc1ccc(F)cc1)Nc1nc2ccccc2s1	-0.7%
CCC(=O)N1Cc2cc(C(=O)Nc3nccs3)nc(-c3cccc(-c4ccccc4OC)c3)c2[C@H]1CCO	-10%
c1ccc(Nc2nc(NCc3ccco3)nc3nccnc23)cc1	-0.7%
Cc1ccc(-n2ncc(C(=O)NCCN3CCc4ccccc4C3)c2C2CCN(C(=O)OC(C)(C)C)CC2)cc1C	-2.2%
CC(CNC(=O)Cn1ccc2cc(S(=O)(=O)N3CCCCCC3)ccc21)c1ccccc1 (centres undefined)	-23%
CCOC(=O)c1cc(OC(=O)c2ccccc2F)n(-c2ccccc2)n1	-4.5%
Cc1ccccc1C(=O)Nc1nc(-c2ccc(Br)cc2)ns1	-2.9%
CCOC(=O)c1c(C)[nH]c(C)c1S(=O)(=O)N1CCC(C(=O)Nc2ccc(OC)c(OC)c2)CC1	3.6%
CC1=C(C(=O)Nc2ccc(Cl)cc2)C(c2cccs2)n2nc(SCc3cccc(C)c3)nc2N1 (centres undefined)	-4.7%
Cc1nn(C)c2c1c(C(F)(F)F)cc(=O)n2CC(=O)NCCC(C)C	4.6%
O=C(c1ccc(CSc2nc3ccncc3n2Cc2ccc(F)cc2)cc1)N1CCCCCC1	-10%
CCOCCc1nn2c(=O)cc(COC(=O)c3ccccc3NC(=O)c3ccc(C)cc3)nc2s1	-20%
CCc1ccc(C(=O)c2cnc3ccc(C)cc3c2S(=O)(=O)c2ccc(OC)cc2)cc1	-11%
Cc1cccc(CNC(=O)c2ccc3nc(Cc4ccccc4)oc3c2)c1	-1.4%

Quoted at random: 5 compounds from above
SMILES	ClpP mod
Cn1c(=O)n(C)c2cc(CNCc3ccc(F)cc3)ccc21	-1.3%
CCCOc1cccc(C(=O)Nc2cccc(NC(=O)c3ccc(C(C)(C)C)cc3)c2)c1	u
Cc1c(C(=O)N(C)C)sc2c1c(=O)n(-c1ccc(Cl)c(Cl)c1)c(=O)n2CC(=O)N1CCCCC1C (centres undefined)	-2.0%
COc1ccccc1N1CCN(c2ccc(=O)n(CC(=O)NCc3ccc(OC(C)C)cc3)n2)CC1	-0.2%
c1ccc(Nc2nc(NCc3ccco3)nc3nccnc23)cc1	-0.7%

More results follow.
SMILES	ClpP mod
O=C1NC[C@H](CCCCN2CCN(CC3CCCCC3)C(=O)C2=O)N(CCc2ccccc2)C1=O	1.8%
Cc1ccn2c(Nc3ccc(C(C)C)cc3)c(-c3ccsc3)nc2c1	4µM*
O=C(C1CCC1)N1CCCc2cc(S(=O)(=O)N3CCN(c4cccc(Cl)c4)CC3)ccc21	1.0%
CC(Oc1ccccc1)C(=O)Nc1cccc(-c2cn3cccnc3n2)c1 (centres undefined)	3.7%
Cc1cc(C)cc(OCC(=O)N(Cc2ccco2)Cc2ccccc2Cl)c1	-2.5%
CCc1ccc(NC(=O)c2ccc(CN3CC(=O)N4CCCCC4C3=O)cc2)cc1 (centres undefined)	-2.5%
COc1ccc(Cl)cc1NC(=O)c1nnn(Cc2cccc(C(F)(F)F)c2)c1N	3.4%
COC(=O)[C@@]1(C(C)C)N=C(c2cc(OC)c(OC)c(OC)c2)[C@]2(O1)C(=O)N(Cc1ccc(OC)cc1)c1ccc(Br)cc12	-4.7%
CC1CCN(S(=O)(=O)c2ccc3c(c2)oc(=O)n3CC(=O)N2CCCCC2)CC1	-0.6%
O=C(Nc1c(C(=O)N2CCN(c3ccc(F)cc3)CC2)oc2ccccc12)c1ccco1	-6.4%
COc1ccccc1-c1cc2nc(C)c(CCC(=O)O)c(C)n2n1	-23%
O=S(=O)(Cc1ccccc1)N1CCN(c2nc(-c3cccs3)nc3ccccc23)CC1	4.1%
CCOc1ccc(CC(=O)NCCc2csc(-c3ccc(Cl)cc3)n2)cc1	-19%
Cn1cc(-c2cc3n(n2)CCC(=O)N3CCCC(=O)NCc2ccc(F)cc2)c2ccccc21	-13%
Cc1ccc(N2CC(NC(=O)CCc3ccccc3)CC2=O)cc1 (centres undefined)	0.2%
Cc1ccc(-n2nc(CO)c(C(=O)NCc3ccccn3)n2)cc1	16%
COC(=O)C1=CN(c2ccc(OC)cc2)C(N)=C(C#N)C1c1ccccc1F (centres undefined)	2.6%
O=C(CC(c1cccs1)N1Cc2ccccc2C1=O)Nc1ccc(F)c(Cl)c1 (centres undefined)	-11%
CC(C)Oc1ccc(CNC(=O)C2CCN(c3nc4ccccc4nc3C(F)(F)F)CC2)cc1	23%
COc1ccc(CC(=O)NCCc2csc3nc(-c4ccccc4F)nn23)cc1	-1.7%
O=C(c1ccc(F)cc1)N1CCc2c([nH]c3ccccc23)C1c1ccc(Cl)cc1 (centres undefined)	-3.2%
COc1cc(CNCc2c(C(=O)O)c(C)n(Cc3cccc(Cl)c3)c2C)cc(OC)c1OC	-5.4%
CCOc1ccc(OCC)c(NC(=O)c2nnn(Cc3cc(Br)ccc3OC)c2N)c1	u
Cc1cn2c(=O)c(S(=O)(=O)NC(C)c3ccccc3)c(C)nc2s1 (centres undefined)	32µM*
CCn1c(=O)c2sccc2n2c(CCC(=O)Nc3ccc(OC)cc3OC)nnc12	-0.9%
SMILES	ClpP mod
Cc1ccc(C(=O)N(Cc2ccc(N(C)C)cc2)CC2CCCO2)cc1 (centres undefined)	-3.5%
Cc1ccc(NC(=O)C2CCCN(C(=O)c3cnn(-c4ccc(F)cc4)c3-n3cccc3)C2)c(Cl)c1 (centres undefined)	1.9%
COC(=O)/C=C1\OCc2cc(OC)c(OCc3ccccc3)cc21	-6.1%
CCS(=O)(=O)N1Cc2cc(C(=O)NCC3CC3)nc(-c3cccc(-c4cccnc4)c3)c2[C@@H]1CCO	-1.2%
Cc1cn(C)c(CC(=O)N2CCN(c3cccc(C(F)(F)F)c3)CC2)c1C(=O)O	-0.4%
Cc1ccc2c(=O)c(C(=O)c3cccc(Cl)c3)cn(CC(=O)Nc3ccccc3C(F)(F)F)c2n1	2.4%
Cc1ccc(-c2cc(C(F)(F)F)n3nc(C(=O)Nc4ccc(Cl)cc4Cl)cc3n2)cc1	-8.3%
Cc1oc(-c2ccc(Cl)cc2)nc1CN1CCCC(C(=O)NCCc2ccccc2)C1 (centres undefined)	5.8%
CC(=O)Nc1c(C)nn(-c2ccccc2)c1N1CCC(C(=O)Nc2ccc(C)cc2Cl)CC1	-0.1%
CCN(CC)S(=O)(=O)c1nnc(NC(=O)COc2cccc(C)c2)s1	-2.3%
O=C(Nc1ccc2oc(-c3cccnc3)nc2c1)c1ccc(-c2ccccc2OC(F)(F)F)o1	-6.7%

Screens: PubChem BioAssay, National Center for Advancing Translational Sciences (NCATS)
